# Mtb hypoxia inh: PubChem AID 1159583 | M. tuberculosis hypoxia-regulated fluorescent reporter, fluorescence | fluorescence inhibition, % (concentration not given with the values) | 300,000 compounds, 0.1% hits;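 active = 35 to 45% if threefold the growth effect, above 45% if 1.5-fold the growth effect; inactive = the rest, general growth blockers included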;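 note: wells of about 50 µL received 100 nL stock; 0% = vehicle wells and 100% = reference inhibitor wells; whole bacteria with a GFP reporter of the hypoxia response; strong numbers were not always called active; many hits fall short of the cut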
# Autofluor counter: compound fluorescence in toxin protease inhibitor counterscreen | compound autofluorescence counterscreen, microsphere flow cytometry; stronger effect = higher value | fluorescence intensity (concentration not given with the values) | 360,000 compounds, 3.1% hits;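 active = at least 3 SD above the mean of all compounds, about 16000 in these data; inconclusive = too few beads counted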;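 note: 100 nL of 1 mM stock went into each well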
# PrP UTR inh: inhibition of PrP 5' UTR reporter expression | inhibition, % (no concentration beside the values) | 340,000 compounds, 0.35% hits | AID 488862, 2010 | cell-based PrP 5' UTR mRNA reporter, plate reader;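 active = every replicate at 50% or more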;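 note: 0 = median of the neutral control wells; tested in H4 reporter cells; numbers are from one replicate; inactives centre near -14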
# Sa ugtP lethal: growth inhibition of ugtP-null S. aureus, primary screen, RN4220 ugtP deletion, OD600; 16 h; some inactives read as strong as hits; growth inhibition, % (concentration not given with the values); 330,000 compounds, 0.54% hits;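 active = z-score under -3 and OD600 up to 0.15 on both plates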;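 note: plate controls were untreated wells for no effect and antibiotic for full effect; wells of about 80 µL received 100 nL stock; the first replicate is given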
# Sa RN4220 lethal: growth inhibition of S. aureus RN4220, primary screen, OD600 | 16 h | inhibition, % (concentration not given with the values) | 330,000 compounds, 0.33% hits;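 active = z-score of -3 or lower and OD600 up to 0.18 on both plates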;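 note: plate controls were untreated cells for no effect and reference antibiotic for full effect; stock transfer was 100 nL into about 80 µL; one replicate is shown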
# BJeLR lethal: MLPCN primary cell-based screen for lethality selective to Ras in HRASV12 cells | AID 1554, 2009 | inhibition, % (concentration not given with the values) | 300,000 compounds, 0.17% hits | BJeLR (HRASV12) viability, CellTiter-Glo ATP luminescence, 48 h; reference of the scale not given here;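 active = replicate mean above 50%; inconclusive = above 50% but judged a plate artefact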;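 note: 50 nL library stock added to about 25 µL; numbers are from one replicate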
# Mtb hypoxia inh growth: recorded beside Mtb hypoxia inh, whose call it bears; growth inhibition, %; measured here: M. tuberculosis growth (absorbance);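 0% = vehicle and 100% = reference antibiotic; read after six days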
# An asterisk follows results filed as active; ? = inconclusive; . = no result given.
SMILES,Mtb hypoxia inh,Mtb hypoxia inh growth,Autofluor counter,PrP UTR inh,Sa ugtP lethal,Sa RN4220 lethal,BJeLR lethal
O=C(NNC(=O)C1CC(=O)N(Cc2ccccc2)C1)c1ccc(F)cc1 (stereo not given),10,2,5970,-18,0,0.8,4
Cc1ccc(S(=O)(=O)N2CCN(C(=O)CCCOc3cccc(C)c3)CC2)cc1,15,43,8244,-13,2,0.4,.
Cc1ccc(C(=O)NCC(=O)N2CCCC(C(F)(F)F)C2)s1 (stereo not given),3,4,4254,-5,8,1.1,9
CCOC(=O)C1(Cc2ccccc2)CCN(Cc2nccn2CC)CC1,-1,1,4806,-25,6,5.0,-6
COc1ccc2c(c1)c1nc3ccccc3nc1n2CCCN1C(=O)c2ccccc2C1=O,-6,-10,2151,-21,1,1.8,-18
Cc1ccc(S(=O)(=O)CC(=O)Nc2nnc(C(C)C)s2)cc1,12,-5,4160,-18,1,1.2,6
Cc1ccc(S(=O)(=O)N(CC(=O)NN=C2CCN(C)CC2)c2ccc(F)cc2)cc1,0,-2,4422,-17,2,7.9,-7
CCc1ccc(/C=C2\SC(N3CCOCC3)=NC2=O)cc1,-2,6,2547,-22,-1,6.3,-4
COc1cc(C)cc2c1OC(c1ccccc1)CC2=O (stereo not given),21,12,4151,-42,2,0.0,.
COc1ccccc1N(N=C1Sc2ccccc2C1=O)C(C)=O,21,11,.,.,-4,7.1,.
Cc1nc2ccccc2n1CC(=O)NC1CCCC1,-6,5,2102,-10,4,0.3,0
COc1ccc(C2NN=C(c3ccc(C)cc3)S2)cc1OC (stereo not given),1,7,4592,-72,13,15,-2
CN(C)S(=O)(=O)c1cccc(-c2nn(-c3ccccc3)cc2/C=C(/C#N)C(=O)NCc2ccco2)c1,-4,2,2489,1,0,4.6,-2
CC(=O)Nc1ccc(S(=O)(=O)N(C#N)c2nc(N(C)C)nc(N(C)C)n2)cc1,12,4,3258,-61,1,3.1,-1
CSc1ncc(CN2CCC(C(=O)Nc3cccc(-c4cscn4)c3)CC2)cn1,6,7,4518,-8,-4,-1.8,5
Cc1ccc(/C=C2/SC(=S)N(CCC(=O)N3CCOCC3)C2=O)cc1,9,11,5874,-3,-2,4.8,-10
COc1ccc(C(C)=O)cc1COC(=O)[C@H](Cc1ccccc1)NC(=O)c1ccco1,17,6,3701,1,-5,5.1,.
CN1CCN(CC/C=C2/c3ccccc3Sc3ccc(S(=O)(=O)N(C)C)cc32)CC1,.,.,4882,24,.,.,7
Cc1ccc(S(=O)(=O)N2CCN(Cc3nc4ccccc4n3C)CC2)cc1,4,5,9982,-32,12,6.2,1
Brc1ccc2ncnc(NCc3ccco3)c2c1,8,14,3837,-10,-26,5.2,0

# The final 2 records of the part above are carried over, then new ones follow.
SMILES,Mtb hypoxia inh,Mtb hypoxia inh growth,Autofluor counter,PrP UTR inh,Sa ugtP lethal,Sa RN4220 lethal,BJeLR lethal
Cc1ccc(S(=O)(=O)N2CCN(Cc3nc4ccccc4n3C)CC2)cc1,4,5,9982,-32,12,6.2,1
Brc1ccc2ncnc(NCc3ccco3)c2c1,8,14,3837,-10,-26,5.2,0
CN(C)c1ccc(C=NNC(=O)c2cc(-c3ccc4c(c3)OCO4)n[nH]2)cc1,-3,2,.,.,1,1.5,.
NC(=O)CC(NC(=O)Cc1ccc(Br)cc1)c1ccc(N2CCC(Br)CC2)c([N+](=O)[O-])c1 (stereo not given),0,4,3869,-13,-2,-1.6,7
O=C(Nc1ccc2nc(-c3cccnc3)[nH]c2c1)C1CCCCC1,-2,14,2957,-28,-9,-1.0,8
CC1=CCC(C(=O)O)C(C(=O)Nc2ccc(-c3nc4ccc(C)cc4s3)cc2)C1 (stereo not given),-3,-9,5137,-83,5,15,-2
NS(=O)(=O)c1ccc(NC(=O)CN2CCN(Cc3ccccc3)CC2)cc1,18,-18,2584,-30,2,-16,-1
CC1CCN(C(=O)c2cc3nc(C4CC4)cc(C(F)(F)F)n3n2)CC1,6,9,3036,-11,14,3.9,-1
O=C(CSc1ccc(-c2ccccc2)nn1)c1cccs1,-3,7,4539,-33,0,11,13
COC(=O)c1ccsc1NC(=O)c1cccc(OC)c1,4,4,4660,-1,16,-3.5,11
Cc1ccc2[nH]c(=O)c(CN(CCc3ccccc3)Cc3nnnn3CC3CCCO3)cc2c1 (stereo not given),5,2,6013,1,-2,12,-13
COC(=O)c1ccc(NC(=O)COc2ccc(S(=O)(=O)NC(C)C)cc2)cc1,0,-10,6139,-20,0,0.3,14
CCOC(=O)N1CCN(c2ccc(O)cc2)CC1,.,.,4480,-4,1,2.2,-4
CCNc1ccccc(-c2ccc3ccccc3n2)c1=O,1,10,9195,-40,7,3.2,2
O=S(=O)(c1ccc(S(=O)(=O)N2CCN(C3CCCCC3)CC2)cc1)N1CCCCCC1,21,6,6006,-39,2,6.8,.
Cc1cc(CNCCN(C)C)c(C)n1-c1cc(S(=O)(=O)N2CCOCC2)ccc1N1CCCC1,8,5,8003,-13,3,-3.7,.
COc1ccc(C[C@H]2CN3C(=NC[C@@H]3C(C)C)N2CCNC(=O)c2ccc(C)c(Br)c2)cc1,.,.,3025,-8,.,.,1
CN1C(=O)C(CC(=O)Nc2ccccc2F)N(NC(=O)c2ccc(Br)cc2)C1=S (stereo not given),-10,-1,3779,3,-4,0.7,5
Cc1cccc(-n2nc3c(c2NC(=O)CCC2CCCCC2)CS(=O)C3)c1C (stereo not given),13,9,4111,-13,5,5.8,-3
COc1ccc(NC(=O)COc2ccc(/C=C/c3cccc[n+]3C)cc2OC)cc1,-5,-2,3928,-19,5,0.3,-5
O=C(NC(=S)N1CCCc2ccccc21)c1ccccc1,.,.,2744,-48,0,8.3,1
Clc1ccc(CN2C3=NCCCN3c3ccccc32)c(Cl)c1,3,16,3699,-14,8,-3.0,-23
O=c1[nH]c2cccnc2n1-c1ccc([N+](=O)[O-])cc1,5,3,4088,-10,-1,8.3,-6
COc1ccc(C(=O)Nc2ccccc2C(=O)NN=Cc2ccc(O)c(OC)c2)cc1,16,9,.,.,3,-4.2,.
COC(=O)C1=C(C)NC(=O)NC1/C=C/c1ccccc1 (stereo not given),9,3,6431,-6,4,3.9,-2
COc1ccccc1C(=O)NCCC(=O)NCCCSc1ccccc1,.,.,?,-10,.,.,2
O=C(NCc1ccccc1)N1CCOCC1,5,2,4862,-42,3,5.1,3
CCc1ccc(NC(=O)C2CCCN(S(=O)(=O)c3cccs3)C2)cc1 (stereo not given),3,4,3486,-9,11,0.4,-4
c1ccc(OCCSc2nc3ccccc3o2)cc1,12,5,13347,-67,34,3.6,-6
COc1ccc(/C=N/N2CCN(c3ccc(Cl)cc3)CC2)cc1,.,.,3996,-26,.,.,-8
CCSc1cc(N2CCOCC2)nc(-c2ccc(Cl)cc2)n1,10,2,11352,-17,48,-3.1,-7
Cc1cc(C(=O)NCc2cccs2)nn1C,1,-10,4213,-20,11,5.2,0
COC(=O)c1ccccc1NC(=O)c1ccc(COc2ccc3c(c2)CCC3)cc1,.,.,3912,-3,8,-0.6,0
O=C(CNc1cccc2ccccc12)NN=C/C(Br)=C/c1ccccc1,8,4,.,.,-24,-12,.
CC(C)/C(=N\NS(=O)(=O)c1ccc(Br)cc1)c1cccs1,.,.,4674,4,.,.,5
Cc1cc2[nH]ncc2cc1NC(=S)NC(=O)c1ccccc1,-5,0,6223,-42,33,-1.4,2
O=S1c2ccccc2Oc2ccccc21,8,7,4476,-22,2,0.8,.
O=C(Cc1cccc(NC(=O)C2CCCN(C(=O)CCc3ccccc3)C2)c1)Nc1cccc(C(=O)N2CCCC2)c1 (stereo not given),6,6,4170,-11,2,4.5,.
COc1ccc(C(=O)Nc2ccc(S(=O)(=O)N3CCOCC3)cc2)cc1,-10,-2,4389,.,3,3.4,-6
COc1ccccc1NS(=O)(=O)c1cc(NC(=S)NCC2CCCO2)ccc1C (stereo not given),6,-7,4606,-3,-5,1.1,-3
CCOc1ccccc1CN1CCNC(=O)C1CC(=O)NC1CCCCC1 (stereo not given),8,2,5795,-12,4,2.3,-1
CCCOc1ccc(-c2c(C(=O)NN=CC3CC=CCC3)nnn2-c2nonc2N)cc1 (stereo not given),5,11,.,.,-2,-3.0,.
COC(=O)c1nc2ccc(N3CCOCC3)cc2c(C)c1C(=O)OC,14,3,3411,-56,-1,6.5,.
COc1ccc(S(=O)(=O)N(CC(=O)NCc2ccco2)c2ccc(C)cc2)cc1OC,-3,-1,4536,-3,1,-2.4,2
CC(CCc1ccc(O)cc1)NC1c2ccccc2-c2ccccc21 (stereo not given),12,10,3665,-11,14,3.9,22
CC(O)c1nc2ccccc2n1CC(=O)Nc1ccc2c(c1)OCCO2 (stereo not given),6,7,3747,-20,4,7.0,14
Cc1cc(N2CCN(c3ccccc3)CC2)nc(-c2ccccc2O)n1,7,6,3850,-9,-11,-0.3,1
CCn1c(=NC(=O)CSC(C)=O)sc2cc(OC)ccc21,6,14,5712,-22,2,-9.9,16
CN(C)c1ccc(N2C(=NC(=O)CCC3CCCC3)SC3CS(=O)(=O)CC32)cc1 (stereo not given),-3,5,5965,-21,-4,1.3,7
CSc1nc2oc3c(c2c2nncn12)CC(C)(C)SC3,.,.,5117,-12,-2,2.2,-6
COc1cc([N+](=O)[O-])ccc1NC(=O)NCC1CCN(Cc2ccc(Cl)cc2)CC1,2,12,4996,.,-1,-2.3,6
C=C(C)CSc1nnc([C@H](CCSC)NC(=O)OC(C)(C)C)o1,.,.,2423,-16,0,4.0,-2
CCOC(=O)N1CC=C2C(C#N)=C(N)C(C#N)(C#N)[C@H](c3ccc(OC(C)C)c(OCC)c3)[C@H]2C1,.,.,4411,-6,-3,3.8,8
COc1cccc(OC)c1C(=O)N=c1sc2cc(S(C)(=O)=O)ccc2n1C,-9,-2,4127,-13,-1,3.9,-1
COc1ccc(-c2nc(Cn3c(SCc4ccc(F)cc4)nc4ccncc43)c(C)o2)cc1OC,-2,-2,6549,-11,6,-3.6,-8
O=S(=O)(N=C(NS(=O)(=O)c1ccc(Cl)cc1)c1ccccc1)c1ccc(Cl)cc1,2,6,3881,-19,6,3.1,.
COc1ccc(NC(=O)CSc2nc(N)c3cc4c(nc3n2)CCCC4)cc1,7,5,2205,-37,9,12,11
O=C(COc1ccccc1)N1CCN(S(=O)(=O)Cc2ccccc2)CC1,-14,3,9159,-4,-2,0.9,1
O=C(O)COc1nsnc1N1CCOCC1,10,4,6426,-9,6,3.4,3
O=C(NCCc1ccccc1Cl)C1CCC(=O)N(C2CCCCCC2)C1 (stereo not given),2,-6,4182,-22,14,4.7,4
CC1(c2ccncc2)Nc2ccccc2-c2nc3ccccc3n21 (stereo not given),4,6,10253,-41,18,18,-4
Cc1ccc(CN2C(=O)c3ccccc3C2C(=O)NCc2cccnc2)cc1 (stereo not given),-10,-1,6164,-20,-19,3.8,-12

# Part of the list above, with values under each structure.
# Screens in order – Mtb hypoxia inh, Mtb hypoxia inh growth, Autofluor counter, PrP UTR inh, Sa ugtP lethal, Sa RN4220 lethal, BJeLR lethal
- CCn1c(=NC(=O)CSC(C)=O)sc2cc(OC)ccc21
 : 6, 14, 5712, -22, 2, -9.9, 16
- O=C(COc1ccccc1)N1CCN(S(=O)(=O)Cc2ccccc2)CC1
 : -14, 3, 9159, -4, -2, 0.9, 1

# New compounds follow:
SMILES,Mtb hypoxia inh,Mtb hypoxia inh growth,Autofluor counter,PrP UTR inh,Sa ugtP lethal,Sa RN4220 lethal,BJeLR lethal
COc1ccc(C2=NOC(CN3C(=O)c4ccccc4S3(=O)=O)C2)cc1 (stereo not given),6,6,2995,-98,11,5.1,8
O=C1CC(C(=O)NC2CCCCC2)C(c2ccccc2)O1 (stereo not given),.,.,4806,-6,4,0.4,9
CCOC(=O)C1CCN(C(=O)c2c(-c3c(F)cccc3Cl)noc2C)CC1,4,16,9800,-10,-4,0.8,4
COc1ccc(NS(=O)(=O)c2cc(NC(=O)c3ccccn3)ccc2OC)cc1Br,0,5,3889,-26,-3,14,.
Cc1ccccc1-n1c(O)c(C=Nc2nccs2)c(=O)[nH]c1=O,-1,0,.,.,6,9.1,.

# Of the compounds above, 2 contain a COOH group:
SMILES,Mtb hypoxia inh,Mtb hypoxia inh growth,Autofluor counter,PrP UTR inh,Sa ugtP lethal,Sa RN4220 lethal,BJeLR lethal
CC1=CCC(C(=O)O)C(C(=O)Nc2ccc(-c3nc4ccc(C)cc4s3)cc2)C1 (stereo not given),-3,-9,5137,-83,5,15,-2
O=C(O)COc1nsnc1N1CCOCC1,10,4,6426,-9,6,3.4,3

# Compound activity (PubChem)
